Ba CapD inh – Bacillus anthracis CapD inhibitors, primary screen, biochemical, fluorescence intensity. purified CapD enzyme, fluorescence intensity read-out; hits give low values; some hits fall short of the stated cut. z-score (no concentration beside the values). 140,000 tested, 0.23% active;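 active means z-score under -4 in either of two replicates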;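 further: stock transfer was 100 nL into about 40 µL; score is relative to mean and spread of the plate; one replicate is shown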
AID504770 – growth inhibition of E. coli YBA685, primary screen, V. cholerae RctB inhibitors; E. coli YBA685 rctB-dependent plasmid, OD600 growth, 3 h; hits give low values; z-score (concentration not given with the values); 130,000 tested, 0.27% active; AID 504770, 2011;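 active means z-score under -2 on both plates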;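 further: wells of about 30 µL received 100 nL stock; score is relative to mean and SD of the test wells; the first replicate is given; strong numbers were not always called active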
The depositor's hits bear a star; / = not tested or not shown. This is a subset; the hit share may differ from the screen's.

SMILES | Ba CapD inh | AID504770
O=S(=O)(NC1CCN(Cc2ccccc2)CC1)c1ccccc1Cl | 0.14 | /
CC1=NN(C(N)=O)C2(O)CC3C(C12)C3(C)C (configuration not stated) | -0.23 | /
CCN1CCN(C(=O)c2nc(-c3cccnc3)no2)CC1 | -0.56 | -0.5
CNC(=O)C1Cc2ccccc2CN1S(=O)(=O)c1cccs1 (configuration not stated) | -0.34 | 0.15
O=C(c1ccc2c(=O)n(Cc3ccc4c(c3)OCO4)c(=S)[nH]c2c1)N1CCN(c2ccc(F)cc2)CC1 | -0.54 | /
O=C(c1sc2ccccc2c1Cl)N1CCCc2ccccc21 | -0.47 | /
NC(=O)COc1ccc(Nc2nnc(-c3ccc(Cl)cc3)c3ccccc23)cc1 | -0.28 | /
Cc1c(CN2CC3(C)CC2CC(C)(C)C3)c(=O)n(-c2ccccc2)n1C (configuration not stated) | 0.33 | -0.55
Cc1ccccc1NC(=S)Nc1cc(NS(C)(=O)=O)ccc1C | -1.4 | 1.2
COc1ccc(/C=C/C(=O)Nc2sc(C)c(C)c2C(N)=O)cc1 | -1.4 | -0.35
Clc1cccc2c(N3CCN(Cc4ccccc4)CC3)cnnc12 | -1.2 | 0
CCC(=O)N1c2cc(C)ccc2C(=C2SC(C(=O)OC)=C(C(=O)OC)S2)C(=S)C1(C)C | 0.01 | /
Cc1ccc(C)c(NCc2cn[nH]c2-c2ccc(Br)cc2)c1 | -0.38 | -0.9
CCC(c1ccccc1)c1nnc(NC(=O)OC)s1 (configuration not stated) | -0.34 | 2.1
CC1(C)CN(c2ccc(CC#N)cc2)C1=O | -0.81 | 0.65
O=C(CN1CCN(c2ccccn2)CC1)N1CCc2ccccc2C1 | / | -0.8
CCN(CC)S(=O)(=O)c1ccc(N2CC(C)OC(C)C2)nc1 (configuration not stated) | / | 2.1
O=C(/N=C1/SCCN1CC(=O)c1ccccc1)Nc1ccccc1 | / | 1.1
CC(C)NC(=O)CSc1ccccc1C(=O)Nc1ccc(-n2cnnn2)cc1 | / | -0.15
NC(=S)N/N=C/c1c[nH]c2ccccc12 | -2.8 | -0.8

Retrieved one by one from the entries so far:
SMILES | Ba CapD inh | AID504770
O=S(=O)(NC1CCN(Cc2ccccc2)CC1)c1ccccc1Cl | 0.14 | /
CNC(=O)C1Cc2ccccc2CN1S(=O)(=O)c1cccs1 (configuration not stated) | -0.34 | 0.15
Cc1c(CN2CC3(C)CC2CC(C)(C)C3)c(=O)n(-c2ccccc2)n1C (configuration not stated) | 0.33 | -0.55

The main list resumes, repeating the six entries before the break.
SMILES | Ba CapD inh | AID504770
CC1(C)CN(c2ccc(CC#N)cc2)C1=O | -0.81 | 0.65
O=C(CN1CCN(c2ccccn2)CC1)N1CCc2ccccc2C1 | / | -0.8
CCN(CC)S(=O)(=O)c1ccc(N2CC(C)OC(C)C2)nc1 (configuration not stated) | / | 2.1
O=C(/N=C1/SCCN1CC(=O)c1ccccc1)Nc1ccccc1 | / | 1.1
CC(C)NC(=O)CSc1ccccc1C(=O)Nc1ccc(-n2cnnn2)cc1 | / | -0.15
NC(=S)N/N=C/c1c[nH]c2ccccc12 | -2.8 | -0.8
COc1cccc(/C([O-])=N\c2c[n+](-c3ccc(C)cc3)no2)c1 | 0.79 | -0.8
CC1CCC(NC(=O)c2oc(=O)c3ccccc3c2-c2ccccc2)CC1 (configuration not stated) | 59 | 1.2
COC(=O)Cn1c(C)cc(C)c(C#N)c1=O | / | 0.15
COC(=O)C(NC(=O)C(Cc1c[nH]c2ccccc12)NC(=O)OC(C)(C)C)C(C)C (configuration not stated) | 0.12 | /
CC(C)(O)/C(=C/C#N)n1cccn1 | -0.01 | 1
Cc1nn(-c2ccccc2Cl)c2sc(C(=O)N3CCCC3)cc12 | -0.42 | 2.5
O=C(C(F)F)N1CCN(c2ccccc2)CC1 | / | 0.15
O=C(NCCN1CCOCC1)c1ccccn1 | -0.36 | -1.7
O=C(COc1ncn(-c2ccccc2)n1)N/N=C/c1c(O)ccc2ccccc12 | 0.48 | /
Oc1ccccc1C=Nc1ccccc1Cl | -2.3 | -0.55
CCN1C(=O)c2cccc3c(S(=O)(=O)N4CCCC4)ccc1c23 | 0.22 | /
Cn1c(=O)oc2cc(S(=O)(=O)NCCN3CCCCCC3)ccc21 | -0.22 | 1.6
Clc1ccc2nc(CSc3ncccn3)cn2c1 | / | 2.5
S=C(NCCc1ccccc1)c1ccccc1 | -1.2 | -0.35
C=C(C)CSC1=C(C#N)C2(CCCCC2)C(C#N)C(=O)N1 (configuration not stated) | -0.15 | -0.7
CC(C)(C)C1CCc2nc(NC(=O)CC#N)sc2C1 (configuration not stated) | / | -1.4
CCCCCn1c(SCC(=O)c2ccccc2)nc2cc(C(=O)N3CCN(C(=O)OCC)CC3)ccc2c1=O | -0.045 | /
Cc1sc(N)c(C(=O)c2ccc(Cl)cc2)c1C | -0.34 | -0.05
COc1cc(-c2nc3sc4c(c3c(=O)[nH]2)CCCC4)ccc1OCc1cc(=O)n2nc(C)sc2n1 | 0.72 | 1.3
CCC1=NN(C(=O)c2ccccc2OC)C(O)(c2ccc(OC)cc2)C1 (configuration not stated) | 0.34 | /
Cc1nn(-c2ccccc2)c2nc(C(F)(F)F)[nH]c(=O)c12 | 1 | 0.5
O=C(CC1(C(=O)O)CCCC1)N1CCOCC1 | / | 0.2
CCC1OC(c2cccc(OC)c2)=Nc2ccccc21 (configuration not stated) | 0.94 | 0.1
S=C(Nc1cccc(Cl)c1)N1CCCc2ccccc21 | -0.15 | /
O=C(Nc1ccc2c(c1)OCCO2)c1ccc(N2CC3CC(C2)c2cccc(=O)n2C3)c(NC(=O)c2ccc(F)cc2)c1 (configuration not stated) | -0.24 | /
Cc1cc(C)cc(N2C(=O)CC(N(C(=O)c3ccco3)c3cc(C)cc(C)c3)C2=O)c1 (configuration not stated) | 0.18 | 1.9
O=C(N/N=C/c1cccc(OCc2ccccc2)c1)C1CC1c1ccccc1 (configuration not stated) | -1.1 | /
CCOC(=O)c1c(CN2CCN(C)CC2)n(-c2ccccc2)c2cc(Br)c(O)cc12 | -0.14 | /
COc1ccc2nc(NC(=O)CCCN3C(=O)C4C5C=CC(C5)C4C3=O)sc2c1 (configuration not stated) | 0.09 | 0.55
Cc1cc(NC(=O)Cn2nc3c(cc2=O)CCCC3)ccc1Br | / | 2.3
c1ccc(-c2nc(N(c3ccccc3)c3ccccc3)s[n+]2-c2ccccc2)cc1 | 1.2 | /
Cc1sc(NC(=O)CCC(=O)O)c(C#N)c1C | -0.42 | -0.1
CC1(O)c2ccccc2C(=O)N1CCc1cccc2ccccc12 (configuration not stated) | -0.49 | 2
CCOC(=O)c1sc(S(C)=O)c2c1CCCC2=O (configuration not stated) | 0.18 | -0.25
Nc1ccc(NC(=O)c2ccccc2O)cc1 | -0.83 | /
C=C(C)C1CC=C(CN(C)C2CCN(C)CC2)CC1 (configuration not stated) | -0.085 | 1.4
CCc1nc(C)c(-c2ccccc2)c(=O)[nH]1 | 0.14 | 0.75
CCN(CC)c1ccc(C2Nc3ccc4ncccc4c3C3=C2C(=O)CC(C)(C)C3)cc1 (configuration not stated) | 0.83 | /
O=C(NCc1ccco1)c1ccc2c(c1)nc(SCc1ccncc1)n1c3ccccc3nc21 | 1.5 | /
CC1CCCCN1C(=O)c1cc2nc3c(c(C(F)(F)F)n2n1)CCc1ccccc1-3 (configuration not stated) | 0.075 | -1.1
Cc1cc(C)cc(NC(=O)NC(C)C2CCCO2)c1 (configuration not stated) | 0.1 | -0.8
O=C(OCc1nc(-c2ccc(Cl)cc2)cs1)N1CCc2c([nH]c3ccccc23)C1 | -0.27 | /
CC1(C)C2CCC1(CS(=O)(=O)NCc1ccc(C(F)(F)F)cc1)C(=O)C2 (configuration not stated) | 0.12 | /
O=C(Nc1nc([N+](=O)[O-])cs1)c1cc2ccccc2o1 | -2 | /
CN(C(=O)COC(=O)c1cccnc1Nc1cccc(C(F)(F)F)c1)C1CCS(=O)(=O)C1 (configuration not stated) | / | 1.7
NC(=O)Cn1c(=O)n(CCc2nc(-c3ccccc3)no2)c(=O)c2ccccc21 | 0.58 | -0.15
CC1(C(=O)N2CCCCC2)CCC(C(=O)N2CCCCC2)C1(C)C (configuration not stated) | -0.58 | /
CCOC(=O)NC1(Nc2ccccc2Cl)Oc2ccccc2O1 | 0.03 | -0.1
O=S(=O)(Nc1ccc(-c2nc3ccccc3o2)cc1)c1ccccc1 | / | 1.1
Cc1c(C(=O)OCC#N)oc2ccc(Br)cc12 | / | 0.45
Cc1ccc(S(=O)(=O)c2nc(N3CCCC(C)C3)sc2Cl)cc1 (configuration not stated) | / | -0.1
COC(=O)c1cccc([N+](=O)[O-])c1-c1c(C(=O)OC)cccc1[N+](=O)[O-] | 0.05 | /
O=CNc1nonc1NNc1nonc1NC=O | / | 0.15
Nc1ccc(-c2nc3ccccc3s2)cc1 | 47 | -1
Cn1[nH]c(=O)c2cc(Cl)c(Cl)cc2c1=O | 0.44 | -0.4
CCC(C#N)(c1ccccc1)c1ccc(N)cc1 (configuration not stated) | -0.51 | /
CC(C)(C)Cc1nc(C2(c3ccc(Cl)cc3Cl)CC2)no1 | 0.05 | -0.55
O=c1s[nH]c2ccccc12 | -0.23 | /
Cc1ccccc1-c1nccc2ccccc12 | 0.92 | -0.85
CCOc1ccc(NC(=O)CSc2nc(N)c(C#N)cc2C#N)cc1 | 3.3 | /

Arranged by count of non-hydrogen atoms (low to high): some entries from above.
SMILES | Ba CapD inh | AID504770
Cn1[nH]c(=O)c2cc(Cl)c(Cl)cc2c1=O | 0.44 | -0.4
Cc1cc(C)cc(NC(=O)NC(C)C2CCCO2)c1 (configuration not stated) | 0.1 | -0.8
CN(C(=O)COC(=O)c1cccnc1Nc1cccc(C(F)(F)F)c1)C1CCS(=O)(=O)C1 (configuration not stated) | / | 1.7

Additional structures:
SMILES | Ba CapD inh | AID504770
O=C(Cn1c(CCCO)nc2ccccc21)N1CCc2ccccc21 | / | -0.2
CCNC(=O)c1c(O)c2ccccc2n(CC)c1=O | / | -0.65
O=C(Nc1ccc(F)cc1)C1CC1 | 0.14 | /
CCOC(=O)c1[nH]c(C)c(C(=O)OCCOc2cccc(C)c2)c1C | / | 0.25
O=C(OCC(=O)N1CCCC1)c1cccc(Br)c1 | -0.22 | -0.1
c1ccc(C2=Nc3ccccc3N=C(c3ccccc3)C2)cc1 | -1.2 | -0.05
c1ccc(-c2nc3ccccc3nc2-c2ccccc2)cc1 | 2.3 | /
Cc1noc(C)c1COc1cccc(C(=O)N2CCc3ccccc32)c1 | / | -2.5*
O=C(N/N=C/c1ccc([N+](=O)[O-])c(O)c1)c1cc(C2CC2)nc2ccccc12 | -1.3 | /
Cc1ccc2c(c1)c1cccc3c1n2CCN3CCC(N)=O | 44 | 1.9
CN(C1CC2C=CC1C2)S(=O)(=O)c1cc(C(F)(F)F)cc(C(F)(F)F)c1 (configuration not stated) | -0.15 | 0.15
C/C(=N\OCC(=O)Nc1cc(C)on1)c1cccs1 | / | 1.7
CCn1c(SC)nnc1C1CCCN(C2CCC(C)CC2)C1 (configuration not stated) | / | -0.25
CCC(=O)OCn1nnc2ccccc2c1=O | / | -1.1
CC(C)CCn1c(=O)c(C(=O)Nc2nc3ccc(F)cc3s2)c(O)c2ccccc21 | 0.75 | /
Cn1c(-c2ccccc2)c(/C=C/C=C/C=C2/C(c3ccccc3)=[N+](C)c3ccccc32)c2ccccc21 | 24 | /
Brc1ccc(-n2cc(-c3ccccc3)c3c(NCCN4CCOCC4)ncnc32)cc1 | -0.14 | /
COc1ccc2ncc(C(=O)c3ccccc3)c(N3CCCCC3)c2c1 | -1.8 | -0.9
O=c1oc2ccccc2cc1-c1nc(-c2cccnc2)no1 | 11 | -1.5
O=c1c(Cc2ccccc2)coc2ccccc12 | 0.35 | -0.65
CCOC(=O)N=c1oc2ccccc2o1 | -0.055 | -0.2
COc1cc(/C=C/C(=O)NC2CCCCC2)cc(S(=O)(=O)NCc2ccco2)c1OC | / | 2
Cc1sc2nc(C(C)Sc3nnc(CN4CCCC4)n3Cc3ccccc3)[nH]c(=O)c2c1C (configuration not stated) | / | -0.75
Cc1ccc(-c2csc3nc(CN(C)C4CCN(C)CC4)[nH]c(=O)c23)cc1 | / | -0.3
COc1cccc(OCC(=O)N2CCN(C)CC2)c1 | -0.79 | -0.5
OC(CN1CCCCC1)c1ccc2cc[nH]c2c1 (configuration not stated) | -0.61 | -0.1
CC1=NN(c2ccccc2)C(=O)/C1=C/c1coc2ccccc2c1=O | -0.45 | 0.55
Cc1ccc(-c2nn(-c3ccccc3)cc2/C=C(\C#N)C(=O)Nc2ccc(SC(F)F)cc2)o1 | / | -0.7
COc1ccc(NC2=NCCCCC2)nc1 | / | -0.8
OC1(c2ccccc2)C/C(=N\n2cnnc2)C=C1c1ccccc1 (configuration not stated) | 0.06 | 0.3
O=C(CSCc1ccccc1)Nc1cc(=O)[nH]c(=O)[nH]1 | / | -0.45
CCOc1cccc2cc(C(=O)NCc3ccccc3)c(=N)oc12 | 0.65 | -0.15
COC(=O)c1ccc(-n2cccc2)cc1OC(=O)c1ccccc1Cl | -0.75 | /
O=C(CSc1nc2ccc(NC(=O)c3ccccc3C(=O)O)cc2s1)NCc1ccccc1 | 0.14 | /
CC(C)(C)c1cc2oc3c(c2cc1OC(=O)c1ccco1)CCCC3 | 0.09 | /

Screening results: PubChem BioAssay, ICCB-Longwood Screening Facility, Harvard Medical School
